Source: PubChem BioAssay
gsp antagonist = antagonists of gsp mutant (McCune-Albright syndrome); gsp-mutant cells, cAMP HTRF, 30 min; control for the full effect not named in the record; Potency, µM (highest dose often 76.9 µM), for the others: top-dose activity change, negative = inhibition, actives largely listed as inhibitors; 0.4% of 340,000 active; active = falling curve of any shape with a large fitted effect; inconclusive = falling curve, mostly with a smaller effect; inactive = flat or rising curve; cell line not stated here;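 further: intracellular cAMP measured with PDE inhibitor Ro 20-1724 present during compound exposure; potency means the concentration at half of the fitted maximal effect; on the % scale 0 is the no-effect control and ±100 the full control effect; nearly all actives have a fitted effect of over 65% in size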
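Measurement of cellular cAMP by homogeneous time-resolved fluorescence following a 30 min compound exposure at 37C. The PDE inhibitor […] was present throughout; the assay buffer was DPBS with 0.05% BSA and 0.005% Tween 20.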
ClpP mod = qHTS Assay for Activators of ClpP; 1.9% of 340,000 active; purified B. subtilis ClpP, FRET peptide cleavage, 20 min; Potency, µM (series often up to 57.5 µM), for inactives: at the top dose activity change, negative = active; AID 651965, 2013; active = well fitted falling curve with a large enough effect; inconclusive = small, poorly fitted or top-dose-only effect; inactive = no such curve, though single readings can be large or run the other way; further: potency means the concentration at half of the fitted maximal effect; the source files actives as falling curves though it sought activators and does not explain the sign; nearly all actives have a fitted effect of over 65% in size; many hits overshoot -100%
Target sequence (P80244 whole entry, looked up): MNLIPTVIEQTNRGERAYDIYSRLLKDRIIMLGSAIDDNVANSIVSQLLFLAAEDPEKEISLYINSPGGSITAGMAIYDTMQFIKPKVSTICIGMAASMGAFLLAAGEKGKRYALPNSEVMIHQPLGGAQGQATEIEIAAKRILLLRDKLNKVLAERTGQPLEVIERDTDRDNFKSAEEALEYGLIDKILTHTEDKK
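Buffer: 100 mM Tris/HCl pH8, 100 mM KCl, 0.05% low protease BSA, 2.5% glycerol, 0.01% Tween-20. ClpP 10 microg/mL final; 20 min RT; delta FRET normalized to ADEP and DMSO controls.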
TRPV1 PAM = human TRPV1 potentiation. TRPV1-expressing cells, Fluo-8 calcium influx, capsaicin EC20 potentiation; host cell line not named in the record; control for the full effect not named in the record. Q8NER1. 0.02% of 320,000 active. AID 540277. potentiation, % at 8.33 µM; active means potentiation above 80%; inconclusive means 30% to 80%; inactive means below 30%; further: 0% is about no effect
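Fluo-8 calcium influx in TRPV1-expressing cells, kinetic read (ex 480/em 520 nm). Compound added and read 3 min for agonist activity, followed by capsaicin at EC20 final and 2 min further read for enhancement.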
gsp ag = agonists of gsp mutant (McCune-Albright syndrome) | gsp mutant cells, cAMP HTRF, 30 min; control for the full effect not named in the record | Potency, µM (series often up to 76.9 µM), without a hit: at the highest dose activation (cAMP increase), actives largely listed as activators | 0.13% of 340,000 active; active = well fitted activation curve with a large enough effect; inconclusive = small, poorly fitted or top-dose-only effect, or another doubt; inactive = no such curve, though single readings can be large or run the other way; cell line not stated here;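 further: phosphodiesterase inhibitor Ro 20-1724 added with compounds to block cAMP breakdown; potency means the concentration at half of the fitted maximal effect; nearly all actives have a fitted effect of over 60% in size; about a fifth of the inactives were tested at one dose only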
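Cells in DMEM/10% FBS with G418 were pretreated with compounds in DMSO plus […] (300 uM stock) for 30 min at 37C. cAMP was measured by HTRF (cAMP-d2 plus anti-cAMP antibody-K) after 30 min at room temperature.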
Sfp inh = blocks B. subtilis Sfp PPTase activity; Q9F4F7; Biochemical Sfp PPTase activity, qHTS; Potency, µM, for the others: max response, negative = inhibition, usual class: inhibitors; 3.5% of 310,000 active; AID 1490; active means well fitted inhibition curve with a large enough effect; inconclusive means small, poorly fitted or top-dose-only effect, or another doubt; inactive means no such curve, though single readings can be large or run the other way;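 further: the enzyme is Sfp with the accession as filed and its product quenches rhodamine fluorescence; potency means the concentration at half of the fitted maximal effect; 0% = enzyme reaction without inhibitor and -100% = no enzyme wells; top concentration of the series not given in the record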
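After 15 min at room temperature with compound, 15 nM Sfp received 5 uM rhodamine-CoA plus 12.5 uM BHQ-2-ybbR (50 mM Hepes pH 7.6, 10 mM MgCl2). Rate came from the fluorescence difference over 30 min, ex 525/em 598 nm.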
D2 potentiator = potentiates the human D2 dopamine receptor allosterically; DiscoveRx D2 beta-arrestin cells, luminescence, 90 min; 100% = 57 uM dopamine signal; AID 624464; P14416; potentiation, % (concentration not given with the values); 0.23% of 360,000 active; active = potentiation of 50% or more; inconclusive = 30% to 50%; inactive = 30% or less;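 further: compound concentration not given in the record; tested on top of an EC20 dose of dopamine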
Target sequence (P14416 whole entry, looked up): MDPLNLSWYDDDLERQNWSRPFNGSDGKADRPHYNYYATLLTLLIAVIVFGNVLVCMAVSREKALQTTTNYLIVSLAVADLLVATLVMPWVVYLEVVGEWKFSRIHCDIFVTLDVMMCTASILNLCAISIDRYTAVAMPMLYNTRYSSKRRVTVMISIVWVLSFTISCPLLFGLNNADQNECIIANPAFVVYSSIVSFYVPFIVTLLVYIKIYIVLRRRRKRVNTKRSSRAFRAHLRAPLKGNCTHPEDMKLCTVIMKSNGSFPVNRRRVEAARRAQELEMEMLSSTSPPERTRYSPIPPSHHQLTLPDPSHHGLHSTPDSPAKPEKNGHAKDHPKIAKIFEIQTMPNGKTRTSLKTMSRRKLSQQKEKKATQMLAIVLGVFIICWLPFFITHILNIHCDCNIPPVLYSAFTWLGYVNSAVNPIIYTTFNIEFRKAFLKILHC
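PathHunter beta-arrestin assay in DiscoveRx D2 cells. Compounds were added with an EC20 of dopamine (50 nM final) for 90 min at 37 deg C. Luminescence was read 1 h after detection reagent, with 57 uM dopamine as the EC100 control.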
Menin MLL FP FL = menin-MLL binding inhibition, fluorescein peptide | Fluorescence polarization, fluorescein-MLL peptide displacement from menin | FP activity change, % at 61.4 µM | 290,000 tested, under 10 active; inconclusive = falling polarisation curve, or a change in total fluorescence; inactive = total fluorescence flat and polarisation flat or rising; no compound was filed as active; the % refers to the polarisation; negative = inhibition;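 further: % of control where 0% means no effect; inhibitors lower the polarisation; unlabelled MLL peptide was the positive control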
Starred values were filed as active, the others as inactive; ? = inconclusive; / = no result given; & = joins results of further samples; [ ] = remark or other dose.

entry	SMILES	gsp antagonist	ClpP mod	TRPV1 PAM	gsp ag	Sfp inh	D2 potentiator	Menin MLL FP FL
1	O=C(COc1ccc(Cl)cc1)N1CCN(c2ccc([N+](=O)[O-])c(N3CCCCC3)c2)CC1	-8.0%	-0.5%	2.9	-17.9%	16.2%	9.7	-4.2
2	Cc1ccc(NC(=O)COC(=O)CN2C(=O)NC(C)(C)C2=O)cc1S(=O)(=O)N1CCOCC1	-6.9%	-0.1%	-7.0	-17.8%[15.4 µM]	-1.3%	-22.6	5.8
3	COc1ccc(C)cc1S(=O)(=O)N(C)CC(=O)NC1CCCCCC1	3.5%	/	-8.7	?	-1.9%	-13.2	-3.3
4	COc1cc(NC(=O)c2cc(-c3ccc(C)cc3)on2)cc(OC)c1OC	11.7%	1.7%	9.0	-6.4%	1.0%	-11.8	-3.0
5	COc1ccc(NC(=O)CN2CCOCC2)cc1	6.6%	-0.2%	0.6	-2.5%	?	4.2	-3.2
6	COc1cc(OC)cc(C(=O)NCCCNC(=O)c2ccccn2)c1	9.7%	-2.4%	-28.0	2.6%	4.8%	-0.9	-3.9
7	O=C(CCCCC(=O)Nc1c(I)cc(I)c(C(=O)O)c1I)Nc1c(I)cc(I)c(C(=O)O)c1I	1.8%	-0.1%	/	/	22.0%	-9.5	0.5[24.8 µM]
8	COC(=O)c1ccc(=O)n(CC(=O)c2ccc(Cl)cc2)c1	-5.7%	/	-9.4	1.9%[15.4 µM]	17.8%	8.3	-0.1
9	COc1ccc(-n2c(Cc3cccn3C)nnc2SCC(=O)Nc2cc(C)cc(C)c2)cc1	-25.0%	3.6%	5.1	-38.7%[inhibitor]	13.3%	-2.4	-1.1
10	Cc1cc2cc(CN(Cc3ccc4c(c3)OCO4)Cc3nnnn3C3CCCC3)c(=O)[nH]c2cc1C	-16.9%	-10.5%	25.2	-5.2%	-0.1%	-7.1	-0.8
11	O=C(CSc1nnc(Cc2ccccc2)n1C1CCCCC1)N1CCOCC1	8.1%	-0.5%	/	-4.0%	4.5%	-16.0	-1.2
12	COc1cc(/C=N/NC(=O)c2nc(C)cc(C)n2)ccc1O	-14.6%	-2.6%	5.4	16.3%	3.6%	-9.6	-0.3
13	CCCc1c(C)nc2ccc(OC)cc2c1SCCC(=O)O	13.4%	12.6µM*	-2.8	?	14.3%	-0.1	-3.5
14	O=C(C1CCC1)N1CCC(O)(c2cccc(F)c2)CC1	2.6%	/	17.5	-1.8%[15.4 µM]	4.3%	1.7	1.3
15	CSc1n[nH]c(NCc2cccs2)n1	14.6%	-0.1%	10.5	-1.8%	20.1%	-3.1	-0.7
16	COc1cc(NC(=O)CCCNC(=O)Cn2cnc3sc4c(c3c2=O)CCCC4)cc(OC)c1OC	-12.1%	-1.3%	-4.5	-6.9%[15.4 µM]	3.2%	-7.1	1.2
17	Nc1c(C(=O)O)sc2nc(-c3ccc(F)cc3)cc(-c3ccccc3)c12	-18.0%	-4.3%	1.2	0.7%	50.1µM*	-1.3	1.9
18	CC1(C)OC(C)(C)/C(=C/Nc2ccccc2)C1=O	17.6%	0.3%	-0.6	-8.7%[15.4 µM]	14.1%	15.0	4.7
19	CCN(CC)c1ccc(C=Nc2ccc(N(C)C)cc2)c(O)c1	?	-0.3%	6.3	-0.2%	50.1µM*	21.4	?
20	Cc1cccc(-c2ncc(CN3CCC(CO)(CCCc4ccccc4)CC3)cn2)c1	3.2%	0.5%	0.6	-13.0%	-5.1%	-18.8	-1.9
21	CC(=O)c1ccc(N2CCN(C(=O)c3ccco3)CC2)c(F)c1	-4.3%	-3.1%	-7.6	1.2%	6.2%	3.6	0.2
22	COc1ccc(N(CC(=O)NCc2ccc3c(c2)OCO3)S(=O)(=O)c2ccccc2[N+](=O)[O-])c(OC)c1	-7.3%	-9.4%	-7.2	-4.8%	4.2%	5.4	/
23	NC(=O)CCn1nc(-c2ccc(Cl)cc2)c2ccccc2c1=O	-1.9%	-1.9%	9.0	-0.7%	-3.8%	1.3	-1.1
24	COc1ccc(N(C)S(=O)(=O)c2cccc3nsnc23)cc1	3.1%	/	5.0	-36.0%	11.7%	-3.8	-2.6
25	CCCCc1cc2c(c(NC(C)=O)n1)c(=O)oc1ccccc12	/	/	5.2	/	4.0%	/	-1.5
26	Cc1cc(C)n(-c2ccc(C(=O)Nc3sccc3C(N)=O)cc2)n1	-1.1%[15.4 µM]	-7.4%	3.4	27.8%	-19.8%	-10.9	4.1
27	Cc1cc(NCCCO)n2nc(-c3cccs3)cc2n1	-7.1%	/	-11.4	15.1%[15.4 µM]	-13.7%	-7.8	0.8
28	COc1ccc(/C=C(/NC(=O)c2ccco2)C(=O)N2CCCC2=O)cc1	7.4%	/	7.9	7.1%	27.1%	-3.4	-5.5
29	COC(=O)c1ccccc1NC1=C/C(=N\S(=O)(=O)c2ccc(C(=O)O)cc2)c2ccccc2C1=O	-6.0%	/	22.0	4.2%	56.2µM*	8.3	/
30	COc1ccc(NC(=O)c2ccc(F)c(F)c2)c2ccccc12	4.0%	/	-19.8	-24.6%	19.6%	-0.6	0.0

3 compounds from above, limited to Sfp inh:
# | Compound | Sfp inh
28 | COc1ccc(/C=C(/NC(=O)c2ccco2)C(=O)N2CCCC2=O)cc1 | 27.1%
29 | COC(=O)c1ccccc1NC1=C/C(=N\S(=O)(=O)c2ccc(C(=O)O)cc2)c2ccccc2C1=O | 56.2µM*
30 | COc1ccc(NC(=O)c2ccc(F)c(F)c2)c2ccccc12 | 19.6%

The listing continues:
entry	SMILES	gsp antagonist	ClpP mod	TRPV1 PAM	gsp ag	Sfp inh	D2 potentiator	Menin MLL FP FL
31	CCOc1cccc2sc(NC(=O)c3ccc(Br)s3)nc12	-4.0%	-10.7%	10.5	?	-3.0%	-3.1	0.4
32	Cc1nn(CC(=O)N2CCOCC2)c(=O)c2c1sc1ccccc12	1.7%	-25.0%	13.4	?	12.5%	-9.8	/
33	COC(=O)[C@H](Cc1ccc(O)cc1)NC(=O)Cn1cnc2c(NCc3ccccc3)ncnc21	5.6%	-3.4%	/	/	/	-3.2	/
34	Cc1ccc(-c2n[nH]c(=O)c3ccccc23)cc1N	-0.3%	2.8%	-1.1	-26.0%	-1.0%	-3.4	0.4
35	Nn1c(SCc2cccc(Br)c2)nnc1-c1ccncc1	6.2%	/	7.3	13.3%[15.4 µM]	13.4%	-6.9	-2.8
36	CN(Cc1cccc(F)c1)C(=O)c1cc(S(=O)(=O)N2CCOCC2)ccc1N1CCCC1	1.0%	-3.3%	5.5	-45.4%[inhibitor]	/	2.0	/
37	O=C(Nc1ccccc1O)c1ccc(C(=O)c2ccccc2)o1	-1.5%	0.1%	-0.1	-8.4%[15.4 µM]	26.5%	-6.2	-5.4
38	Cc1cc(C=O)c(C)n1-c1cc(C(F)(F)F)ccc1N1CCOCC1	-14.0%	-0.6%	-17.3	9.7%[15.4 µM]	3.0%	-9.1	-1.9
39	COc1cc(C(=O)OC(C)C(=O)Nc2ccc3c(c2)OCO3)ccc1OCc1c(C)noc1C (stereo not given)	-13.0%	0.9%	-2.9	-4.0%	4.1%	-5.7	3.0
40	N#CC(c1nc2ccccc2nc1OCCO)S(=O)(=O)c1ccccc1 (stereo not given)	-18.2%	2.7%	14.2	?	2.7%	-0.4	2.3
41	Cc1ccc(/C=N/n2c(C)nnc2C)o1	-0.5%	0.1%	-2.2	-3.2%	-6.0%	-3.4	3.2
42	O=C(NCc1cccs1)C(=O)NCC1OCCCN1S(=O)(=O)c1ccc(F)cc1 (stereo not given)	6.6%	0.9%	-0.1	16.9%	9.2%	-11.5	3.5
43	O=[N+]([O-])c1cccc(COc2cccc(CN3CCCC3)c2)c1	7.8%	-0.3%	/	/	/	-17.9	/
44	CC(=O)c1cccc(S(=O)(=O)N2CCC(C(=O)Oc3ccc(-c4nnco4)cc3)CC2)c1	-5.4%	/	/	24.4%	/	-6.6	/
45	CCn1nc(C)c(Br)c1-c1nc(-c2ccc(C)cc2)no1	12.6%	/	18.0	-1.0%[15.4 µM]	5.8%	-1.6	1.5
46	C=C1CCN(c2ccc(C(=O)NCc3ccccc3)cc2[N+](=O)[O-])CC1	-4.0%	0.1%	-9.2	/	0.2%	-11.8	1.0
47	CN1C(=O)/C(=C/c2ccc(OC(=O)c3ccco3)cc2)SC1=S	/	/	6.1	2.3%[15.4 µM]	8.7%	-20.8	?
48	O=C(NC(Cc1ccccc1)C(=O)O)NC12CC3CC(CC(C3)C1)C2 (stereo not given)	-8.3%	-1.1%	8.9	-37.4%[inhibitor]	18.3%	-1.9	0.4
49	COc1ccc(/C=N\NC(=O)c2c(C)nc3ccc(Br)cn23)cc1	9.3%	-19.7%	13.4	-23.8%	-8.0%	-4.8	-1.8
50	COCC(=O)Nc1ccc(Nc2ccccc2)cc1	-0.8%	-0.2%	?	-28.7%	70.8µM*	18.5	10.7
51	CC(=O)Nc1ccc(S(=O)(=O)N2CCC(Oc3ccc(-n4cnnn4)cc3)CC2)cc1	-23.5%	-1.0%&0.9%	-10.4	?	15.2%	4.6	/
52	Cc1nnc(SC(C)C(=O)NCC2CCCO2)n1-c1ccccc1 (stereo not given)	10.7%	-0.9%	11.3	-0.8%	5.0%	-15.1	-0.3
53	CCN(CC)CC(C)(C)NS(=O)(=O)c1ccc(Cl)cc1	3.2%	-2.0%	-1.4	11.9%	8.5%	-11.8	2.1
54	COc1ccc(NC(=O)CCc2c(C)nc3nc(CNC(=O)c4cccc(F)c4)nn3c2C)cc1OC	?	-2.4%	0.0	?	17.9%	-12.3	2.0
55	Cc1ccc(C(=O)O)cc1NC(=O)Nc1ccc2c(c1)OCO2	1.6%	/	16.9	?	-8.1%	-0.9	-4.3
56	COC(=O)c1ccc(CSc2nnc(NC(C)C)s2)cc1	-9.8%	-2.6%	9.4	-34.6%	-2.1%	-11.4	0.2
57	CCN1CCN(CCCNC(=O)C2CCN(c3nnc(-n4cccc4)s3)CC2)CC1	5.1%	-0.4%	2.5	14.2%	10.0%	-10.2	4.0
